Source: PubChem (several laboratories)
CSC inhib: cancer stem cell inhibition; cancer stem cell-like cells viability, luminescence; inhibition, % at 7.5 µM; 300,000 compounds, 1.1% hits;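 active means mean at 75% or more and at least half the replicates too; inconclusive means mean and replicates disagree; tested in HMLE shEcad cells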;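 further: 0% = median of negative and 100% = median of positive control wells; the first replicate is given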
MT1-MMP act inh: MT1-MMP (human) activation inhibition; P50281; HT1080 RFP-PRO-GFP cells, GFP/RFP ratio fluorescence, overnight; percent of plate control window, DMSO zero; GFP/RFP ratio change, % at 20 µM; 360,000 compounds, 0.061% hits; AID 651647;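 active means GFP/RFP ratio change of at least 30% with cell ATP level not reduced by more than half and red fluorescence within 50% of control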; further: strong numbers were not always called active
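Compound: 20 µM single dose, 1% DMSO / System: HT1080 RFP-PRO-GFP cells / Controls: DMSO and RFP-L50D-GFP cell wells / Read-out basis: GFP/RFP fluorescence ratio / Schedule: overnight compound exposure at 37 °C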
UUG fidelity: modulators of start codon recognition fidelity in yeast; S. cerevisiae UUG-firefly luciferase reporter, luminescence/redox ratio; activity score, % at 18.7 µM; 350,000 compounds, 0.13% hits; AID 602363;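 active means replicate mean at a twofold rise or more, about +100% in these data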;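 further: firefly luciferase made from a UUG start codon reports start codon fidelity; reporter light over untreated wells divided by growth signal over untreated wells; some hits fall short of that in this replicate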
eIF4H FP inh: inhibitors of RNA binding by human eIF4H | eIF4H fluorescence polarization binding assay | inhibition, % at 35 µM | 290,000 compounds, 0.94% hits | AID 2012;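 active means 50% or more with normal probe brightness, or confirmed in later tests; inconclusive means above 50% with abnormal brightness, or retests that disagree; inactive means below 50% or failed in later tests; about a fifth of its hits are not listed in these tables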;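 further: calls also rest on retests at 20 µM and on dose response follow-up; 0% = protein and probe with vehicle and 100% = probe without protein; strong numbers were not always called active; many hits fall short of the cut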
Rce1 inhib: blocks yeast Ras-converting enzyme | calls only | 290,000 compounds, 0.27% hits | yeast membranes, quenched prenylated peptide cleavage fluorescence;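 active means fall in fluorescence gain of 50% or more versus controls, with final raw signal at or below 3038400; inconclusive means same 50% fall but final raw signal above 3038400; inactive means fall in fluorescence gain under 50%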;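 further: plate controls were neutral control wells for no effect and wells lacking membranes for full effect; tested at 10 µM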
Env fusion inh: inhibitors of HIV Env-mediated cell fusion; 360,000 compounds, 1.1% hits; inhibition, % at 12.3 µM; HeLa-JRFL Env/CEM21 cell fusion, luciferase;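 active means mean replicate inhibition score of at least 50 and every replicate individually at or above 50; inconclusive means only one of the two criteria met; inactive means mean below 50 and not all replicates reaching 50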;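 further: 0% = plate neutral controls and 100% = maraviroc near 300 nM; one replicate is shown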
PABP polyA inh: blocks human PABP binding to poly(A) RNA. P11940. fluorescence polarization. inhibition, % at 35 µM. 290,000 compounds, 1% hits;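 active means 50% or more with normal probe brightness, or confirmed in later tests; inconclusive means above 50% with abnormal brightness, or retests that disagree; inactive means below 50% or failed in later tests; about a fifth of its hits are not listed in these tables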;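 further: calls also rest on retests at 20 µM and on dose response follow-up; controls were probe without protein and protein plus probe with vehicle; some compounds called inactive have numbers as strong as hits; many hits fall short of the cut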
Target sequence (P11940 whole entry, looked up): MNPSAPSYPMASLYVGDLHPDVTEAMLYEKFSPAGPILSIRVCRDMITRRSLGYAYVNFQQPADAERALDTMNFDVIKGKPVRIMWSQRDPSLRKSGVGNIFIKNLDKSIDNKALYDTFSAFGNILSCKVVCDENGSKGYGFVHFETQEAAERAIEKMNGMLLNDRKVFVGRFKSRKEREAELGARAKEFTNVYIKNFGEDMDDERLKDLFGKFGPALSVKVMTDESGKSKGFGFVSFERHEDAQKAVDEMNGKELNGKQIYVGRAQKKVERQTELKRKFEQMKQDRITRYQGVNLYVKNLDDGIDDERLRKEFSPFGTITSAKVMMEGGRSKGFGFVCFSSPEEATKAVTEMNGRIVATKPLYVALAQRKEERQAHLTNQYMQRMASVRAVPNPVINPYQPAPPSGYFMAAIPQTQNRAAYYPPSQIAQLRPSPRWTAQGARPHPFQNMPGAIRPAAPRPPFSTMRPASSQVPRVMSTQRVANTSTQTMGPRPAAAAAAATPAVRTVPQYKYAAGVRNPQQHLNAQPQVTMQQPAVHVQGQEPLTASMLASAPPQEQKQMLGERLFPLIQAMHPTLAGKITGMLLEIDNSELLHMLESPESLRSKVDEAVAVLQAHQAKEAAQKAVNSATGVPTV
eIF4H FP inh retest: also measured in eIF4H FP inh; calls as there; inhibition, %; compound at 20 µM; confirmation average;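 mean of two retest wells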
PABP polyA inh retest: second read-out of PABP polyA inh, no call of its own (marks repeat the call); inhibition, %; compound at 20 µM; confirmation repeats;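 mean of two retest wells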
MT1-MMP act inh RFP: second read-out of MT1-MMP act inh, no call of its own (marks repeat the call); RFP signal change, %; measured here: RFP expression control read;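 0 = vehicle wells; hits needed this value within 50% of zero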
Numbers without * were called inactive; i = inactive; ? = inconclusive; . = no result given; & = joins results of further samples; [ ] = dose if it differs, or a comment.

SMILES | CSC inhib | MT1-MMP act inh | MT1-MMP act inh RFP | UUG fidelity | eIF4H FP inh | Rce1 inhib | Env fusion inh | PABP polyA inh | others
C[C@]12CCC(=O)C[C@@H]1CC[C@@H]1[C@@H]2CC[C@]2(C)[C@@H](C(=O)COC(=O)CCC(=O)O)CC[C@@H]12 | -15&-10 | 2&-1 | 3&-1 | 20&9 | -2&10 | i | -2&3 | 4&6
Oc1ccc(Cl)cc1C=Nc1ccc(Br)cc1 | 36 | -7 | -3 | . | -1 | i | 14 | 8
O=c1ccn([C@@H]2O[C@H](CNS(=O)(=O)C3CC3)[C@@H](O)[C@H]2O)c(=O)[nH]1 | . | 3 | 4 | -5 | . | . | 24 | .
CCCC1Cc2[nH]c(=O)c(C#N)cc2CO1 (stereo unspecified) | -11 | . | . | -10 | 1 | i | -47 | 3
CC(C)N1CCC(N2CCN(C/C=C/c3ccccc3)CC2CCO)CC1 (stereo unspecified) | 0 | 2 | 5 | -13 | 48 | i | . | 31
CCOC(=O)N1CCN(C(=O)c2ccccc2N(Cc2ccccc2)S(=O)(=O)c2ccc(OC)cc2)CC1 | 71 | 1 | -9 | . | 5 | i | 22 | -1
Cc1nn(C(=O)c2ccoc2C)c(N)c1-c1ccccc1 | . | 0 | -1 | -7 | 4 | i | -73 | 5
NS(=O)(=O)c1ccc(-c2ccc(/C=C3\C(=O)Nc4ccccc43)o2)cc1 | -11 | . | . | . | 5 | i | . | 4
CC(=O)Nc1ccc([N+](=O)[O-])cn1 | -17 | 1 | 6 | -8 | -9 | i | . | 5
Cc1cc(NC(=O)c2cc([N+](=O)[O-])cc([N+](=O)[O-])c2)n(-c2ccccc2)n1 | 13 | 0 | 0 | . | -1 | i | 12 | -5
COc1ccc(C(=O)NCC(c2cccnc2)N2CCN(c3ccccc3)CC2)cc1OC (stereo unspecified) | -4 | 11 | 4 | -11 | 4 | i | 11 | 5
O=C(O)CNC(=O)c1cccc(C(F)(F)F)c1 | -17 | 2 | 0 | . | -13 | i | 2 | 4
Cn1ccnc1C(O)c1cc(C(C)(C)C)c(O)c(C(C)(C)C)c1 (stereo unspecified) | 7 | -1 | -3 | -38 | -5 | i | 23 | 3
O=C(COC(=O)C1CCN(c2ccc(C(F)(F)F)cn2)CC1)c1ccc(Cl)cc1 | 7 | -1 | -2 | . | . | i | 3 | .
C=CCn1c(COc2ccccc2)nnc1SCC(=O)O | -3 | 4 | 6 | -9 | -1 | i | . | -2
CC(=O)Nc1ccc(S(=O)(=O)NCC(=O)OCC(=O)NNC(=O)c2ccccc2)cc1 | -4 | 1 | 6 | -5 | . | . | i | .
C/C(=N\NC(=O)CSCc1ccc(Cl)cc1)c1ccc2c(c1)OCCO2 | -1 | 3 | -1 | -16 | -4 | i | -31 | -1
O=C(NNC(=O)c1ccc(Cl)cc1Cl)c1cnccn1 | 4 | 3 | 7 | . | 1 | i | -3 | 4
Cc1n[nH]c(=O)nc1N/N=C/c1ccco1 | 26 | 3 | 2 | -29 | -6 | i | 6 | 33
COc1ccc(/C=N/c2nc3ccccc3n2CCN2CCCCC2)cc1OC | -4 | 4 | 3 | -12 | 0 | i | . | 3
Cc1cc(OCC(=O)NCC(O)c2ccccc2)c2c(C)cc(=O)oc2c1 (stereo unspecified) | -29 | -2 | 1 | -20 | -12 | i | 1 | 2
CCOC(=O)CC(=O)NC(C)(C)CCCCC(C)(C)NC(=O)CC(=O)OCC | -7 | 1 | 4 | -9 | 5 | i | -1 | 8
C(=N\Nc1ncnc2ccccc12)/c1ccccc1 | -1 | 2 | 2 | -33 | 2 | i | -80 | 0
O=C(CCNS(=O)(=O)c1ccccc1Cl)N1CCN(c2ccccn2)CC1 | -9 | -2 | 3 | -24 | . | . | -2 | .
CCn1c(CSc2nnc(-c3ccncc3)n2CCOC)nc2cc(C(=O)O)ccc21 | -7 | 22 | 17 | -21 | 31 | i | 16 | -8
COc1ccc(-c2nc3c(s2)CN(S(C)(=O)=O)CC3)cc1OC | 9 | -2 | -3 | -12 | 3 | i | -8 | -12
Cc1nnc(-c2ccccc2)c(=O)n1/N=C/c1c(O)ccc2ccccc12 | 12 | -95 | -5 | . | ? | i | . | ?
CC(=O)O/N=C(/c1nonc1N)N1CCN(c2ccc([N+](=O)[O-])cc2Cl)CC1 | 16 | 2 | 6 | . | -4 | i | 2 | -3
COc1ccc2oc(C(=O)OCC(=O)N3CCCC(C)C3)c(C)c2c1 (stereo unspecified) | . | 6 | 2 | . | . | i | -2 | .
Cn1c(=O)oc2cc(S(=O)(=O)N3CCC(C(=O)NCc4ccc(F)cc4)CC3)ccc21 | 3 | -1 | 3 | -4 | -2 | i | 11 | -4

Arranged by molecular weight (lowest first): some entries from above.
SMILES | CSC inhib | MT1-MMP act inh | MT1-MMP act inh RFP | UUG fidelity | eIF4H FP inh | Rce1 inhib | Env fusion inh | PABP polyA inh | others
CC(=O)Nc1ccc([N+](=O)[O-])cn1 | -17 | 1 | 6 | -8 | -9 | i | . | 5
O=C(O)CNC(=O)c1cccc(C(F)(F)F)c1 | -17 | 2 | 0 | . | -13 | i | 2 | 4
Cc1nn(C(=O)c2ccoc2C)c(N)c1-c1ccccc1 | . | 0 | -1 | -7 | 4 | i | -73 | 5
C=CCn1c(COc2ccccc2)nnc1SCC(=O)O | -3 | 4 | 6 | -9 | -1 | i | . | -2
Cn1ccnc1C(O)c1cc(C(C)(C)C)c(O)c(C(C)(C)C)c1 (stereo unspecified) | 7 | -1 | -3 | -38 | -5 | i | 23 | 3
C[C@]12CCC(=O)C[C@@H]1CC[C@@H]1[C@@H]2CC[C@]2(C)[C@@H](C(=O)COC(=O)CCC(=O)O)CC[C@@H]12 | -15&-10 | 2&-1 | 3&-1 | 20&9 | -2&10 | i | -2&3 | 4&6
CCn1c(CSc2nnc(-c3ccncc3)n2CCOC)nc2cc(C(=O)O)ccc21 | -7 | 22 | 17 | -21 | 31 | i | 16 | -8
CC(=O)Nc1ccc(S(=O)(=O)NCC(=O)OCC(=O)NNC(=O)c2ccccc2)cc1 | -4 | 1 | 6 | -5 | . | . | i | .
CCOC(=O)N1CCN(C(=O)c2ccccc2N(Cc2ccccc2)S(=O)(=O)c2ccc(OC)cc2)CC1 | 71 | 1 | -9 | . | 5 | i | 22 | -1

Additional results.
SMILES | CSC inhib | MT1-MMP act inh | MT1-MMP act inh RFP | UUG fidelity | eIF4H FP inh | Rce1 inhib | Env fusion inh | PABP polyA inh | others
C=CCNC(=S)NNC(=O)COc1ccc(Br)cc1 | -12 | 1 | 4 | . | 2 | i | -5 | -6
O=C(OCc1c(Cl)cccc1Cl)c1cccnc1Cl | -9 | -4 | -2 | -9 | -17 | i | -121 | -3
COc1ccc(NC(=O)C2CSC(C)(C)N2C=O)cc1 (stereo unspecified) | -15 | 2 | 5 | -5 | -5 | i | -8 | -2
CC(O)C(NS(=O)(=O)c1ccc(Cl)cc1)C(=O)OCC(=O)Nc1cccnc1Cl (stereo unspecified) | 0 | 0 | 3 | -9 | 9 | i | -25 | 6
Cc1noc(C)c1NC(=O)N(C)C[C@H]1Oc2c(NS(=O)(=O)c3cccs3)cccc2C(=O)N([C@H](C)CO)C[C@@H]1C | 6 | -1 | 0 | 4&3 | . | . | -3 | .
Cc1cc(C)c2c(=O)cc(C(=O)NCc3ccccc3)oc2c1 | -5 | -2 | 2 | 4 | -7 | i | 14 | 5
O=C(COc1ccc(Cl)cc1)NC(=S)Nc1ccccc1N1CCOCC1 | -20 | 2 | 1 | -11 | -12 | i | -198 | -12
CCN1/C(=N\N)c2cccc3cccc1c23 | -3 | 21 | 61 | . | 33 | i | 5 | 8
CCc1nc2c(OCc3ccc(OC)cc3)cccn2c1N(C)C(=O)c1ccc(OC)cc1 | . | -1 | -1 | -21 | . | . | 11 | .
CC(CCc1ccccc1)NC(=O)CNC(=S)N(Cc1cccs1)C1CCCC1 (stereo unspecified) | . | -4 | -8 | . | -8 | i | 48 | 1
Cc1nnc(SCC(=O)NCc2ccco2)n1-c1ccc(F)cc1 | . | 6 | -1 | -23 | 4 | i | -18 | -2
CN1/C(=C/C=C(C#N)C#N)C=Cc2ccccc21 | -7 | 25 | 60 | . | ? | i | 5 | ?
C=CCN=c1scc(C)n1/N=C/c1ccc(O)c(O)c1 | 36 | -10 | -12 | . | 4 | i | -76 | -16
Cc1ccc(C2=NNC(C(O)C(O)C(O)C(C)O)S2)cc1 (stereo unspecified) | 2 | -7 | 1 | 2 | 8 | i | -127 | 13
CC(C)NC(=O)COC(=O)c1ccccc1C(=O)c1ccccc1 | . | -1 | 1 | . | 4 | i | 4 | 42
CC1Cc2ccccc2N1c1ncnc2c1nnn2Cc1ccccc1Cl (stereo unspecified) | 3 | 1 | 4 | -18 | 10 | i | . | -3
O=C1NCC(NC(=O)C(F)(F)F)c2cc3c(cc21)OCO3 (stereo unspecified) | 5 | 3 | 1 | -15 | -11 | i | -3 | 54 | eIF4H FP inh retest=-11;PABP polyA inh retest=9
CCCc1[nH]nc2c1C(c1c(C)nn(-c3ccccc3)c1Cl)C(C#N)=C(N)O2 (stereo unspecified) | 9 | 9 | 13 | -8 | -2 | i | -71 | -5
CCOC(=O)C(C)Sc1ncnc2nc[nH]c12 (stereo unspecified) | -17 | 9 | 4 | -22 | 6 | i | 12 | 15
O=C(C[C@H]1C[C@H](C(=O)N2CCOCC2)[C@@]2(CCC3CCCC3)c3[nH]c4cc(-c5ccco5)ccc4c3CCN2C1=O)NCc1cccc(C(F)(F)F)c1 | . | -11 | -9 | 4 | . | . | 14 | .
O=C(C[C@H]1C/C=C\C[C@H](Cc2ccc(F)cc2)C(=O)O[C@@H](c2ccccc2)CNC1=O)N[C@H](CO)Cc1ccccc1 | 11 | -1 | -10 | -24 | . | . | -53 | .
Cc1cc(C)nc(NC(=O)Cc2ccc([N+](=O)[O-])cc2)c1 | 1 | -3 | 0 | . | -2 | i | . | -7
CCCCCCNC(=O)c1ncn[nH]1 | -3 | -2 | -6 | -17 | 3 | i | -8 | 15
C(=N/Nc1nc(-c2ccccc2)cc(-c2ccccc2)n1)/c1cccnc1 | -5 | -54 | -1 | 4 | -3 | i | -13 | -6
CC1(C)Cc2cccc(Oc3cc(NN4CCCCC4)c([N+](=O)[O-])cc3[N+](=O)[O-])c2O1 | -15 | -2 | -8 | -4 | -5 | i | 72* | 4
CCCN(C)C[C@@H]1OCCCC[C@@H](C)Oc2ccc(NC(=O)c3ccccc3)cc2C(=O)N([C@H](C)CO)C[C@@H]1C | . | 0 | 4 | 3&7 | . | . | -4[16.7 µM] | .
CC/C(O)=C1\C(=O)CC(C)(C)CC1=Nc1ccccc1C | -1 | 2 | -1 | . | 1 | i | . | 4
COc1ccc(F)cc1C1=CC(=O)C[C@H](c2ccc3c(c2)OCO3)C1 | 46 | 1 | -11 | 13 | . | . | . | .
CC(C)CC(NC(=O)c1ccc(Cl)cc1)C(=O)OCC(=O)c1ccc2c(c1)NC(=O)CO2 (stereo unspecified) | 43 | 3 | 5 | 4 | -12 | i | . | -12
Cc1ccc(NC(=O)COc2ccc(-c3nnco3)cc2)cc1S(=O)(=O)N1CCOCC1 | -13 | -9 | -19 | . | 6 | . | -5 | -3
